Rango complex inh = prevents formation of the Rango-importin beta complex; Q14974; Rango CFP/YFP FRET sensor + importin beta, 45 min; Potency, µM (doses to about 92.2 µM), inactives show top-dose inhibition of complex formation; 340,000 compounds, 0.031% hits; active = rising FRET ratio curve, often small or poorly fitted; inconclusive = mostly compound fluorescence or quenching in the first reads; inactive = flat curves in all reads;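 further: potency means the concentration at half of the fitted maximal effect; 0% = DMSO wells and 100% = buffer wells lacking importin beta; nearly all actives have a fitted effect of over 15% in size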
Target sequence (Q14974 whole entry, looked up): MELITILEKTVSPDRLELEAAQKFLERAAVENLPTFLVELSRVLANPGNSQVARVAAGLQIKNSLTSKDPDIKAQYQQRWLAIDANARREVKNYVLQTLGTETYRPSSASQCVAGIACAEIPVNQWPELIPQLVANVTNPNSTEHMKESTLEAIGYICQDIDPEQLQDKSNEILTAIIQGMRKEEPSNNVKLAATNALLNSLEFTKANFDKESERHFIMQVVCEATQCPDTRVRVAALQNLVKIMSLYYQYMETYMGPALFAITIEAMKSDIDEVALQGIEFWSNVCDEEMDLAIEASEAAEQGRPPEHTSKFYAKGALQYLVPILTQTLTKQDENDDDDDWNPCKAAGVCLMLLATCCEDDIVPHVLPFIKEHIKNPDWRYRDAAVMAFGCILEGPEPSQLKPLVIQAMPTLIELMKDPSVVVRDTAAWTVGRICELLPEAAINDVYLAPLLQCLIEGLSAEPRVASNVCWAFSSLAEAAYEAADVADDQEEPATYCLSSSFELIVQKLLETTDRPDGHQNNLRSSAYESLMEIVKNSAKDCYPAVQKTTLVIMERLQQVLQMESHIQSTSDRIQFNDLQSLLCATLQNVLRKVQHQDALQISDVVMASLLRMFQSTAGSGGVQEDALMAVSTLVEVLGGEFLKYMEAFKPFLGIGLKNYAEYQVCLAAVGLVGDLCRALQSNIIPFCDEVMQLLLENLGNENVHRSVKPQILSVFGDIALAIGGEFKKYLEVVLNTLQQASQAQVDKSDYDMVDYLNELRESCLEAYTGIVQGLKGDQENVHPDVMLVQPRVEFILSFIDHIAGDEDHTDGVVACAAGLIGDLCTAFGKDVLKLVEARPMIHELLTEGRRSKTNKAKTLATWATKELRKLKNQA
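FRET biosensor Rango (snurportin 1 IBB between N-terminal EYFP and C-terminal Cerulean), 50 nM in PBS/1 mM DTT/0.02% Tween-20/0.1% BSA, preincubated 5 min RT with compound; 0.125 microM importin beta added, 45 min RT, CFP/YFP FRET ratio read.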
miR-21 FLuc = raises the signal of a miR-21 reporter. HeLa miR-21 FLuc reporter, luciferase, 48 h. Potency, µM (doses to about 38.3 µM), for the others: at the highest dose reporter change, positive = more light. 340,000 tested, under 10 active; active = well fitted rising curve with a large enough effect; inconclusive = small, poorly fitted or top-dose-only effect; inactive = no such curve, though single readings can be large or run the other way;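 further: % of control where 0% means no effect; miR-21 action dims this reporter so a rising signal means less miR-21 action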
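HeLa miR-21-FLuc reporter line, endogenous miR-21; 2000 cells/well in DMEM/10% FBS; compound titration up to ~40uM final, 48 h, 37 degree Celsius; luciferase detection reagent, 15 min lysis, CCD luminescence.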
GLA inh pH 4.5 = alpha-galactosidase A (human) inhibition, pH 4.5; P06280; activity change, negative = inhibition, % at 105 µM; 230,000 tested, under 10 active; purified enzyme, 4-MU-alpha-Gal fluorescence, pH 4.5; AID 1467; inconclusive = small, poorly fitted or top-dose-only inhibition, or a rising curve; inactive = flat fitted curve, though single readings scatter; no compound was filed as active;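 further: 0% = full activity with enzyme and -100% = basal without enzyme; dose as in the result columns while the protocol names 77 µM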
Rango release inh = prevents RanGTP from dissociating the Rango-importin beta complex; O95149+P62826; Biochemical FRET Rango-importin beta, RanGTP-induced dissociation; Potency, µM (doses to about 46.1 µM), for inactives: at the top dose activity change, negative = inhibition; 340,000 compounds, 0.071% hits; AID 540253; active means falling FRET ratio curve, often poorly fitted, with flat reads before Ran was added; inconclusive means other falling curves, or compound fluorescence or quenching; inactive means flat or rising ratio curve;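 further: potency means the concentration at half of the fitted maximal effect; % of control where 0% means no effect; nearly all actives have a fitted effect of over 45% in size; -100% = wells without RanGTP and RCC1; the record marks most hits as doubtful in a second field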
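Compounds sat 5 min at room temperature with 0.1 uM Rango biosensor plus 0.25 uM importin beta, then FRET pre-read. RanGTP-RCC1 (0.6 uM Ran, 2mM GTP, 0.2 uM RCC1) added for 45 min, and the CFP/YFP post-read measured blocked complex dissociation.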
Active calls of the source: *; u = inconclusive; x = no result given; & = joins results of further samples; [ ] = remark or other dose. The list is partial; rates above refer to the full screens.

SMILES	Rango complex inh	miR-21 FLuc	GLA inh pH 4.5	Rango release inh
CCn1c(=O)c(C(=O)NCCCc2ccccc2)c(O)c2ccccc21	0.4%	-2%	x	45%
CCOC(=O)Cc1csc(NC(=S)NC(=O)c2cc(OC)cc(OC)c2)n1	-0.4%	-8%	-1	-1%
CCC(O)CNc1nc(-n2nc(C)cc2C)nc2sc3c(c12)CCCC3 (stereo not given)	x	-12%	8	x
NC(=O)c1ccccc1NC(=O)CN1CCOCC1	18%	-2%	3	8%
O=C(CN1C(=O)/C(=C\c2cccc(Cl)c2)Sc2ccccc21)NCCCN1CCOCC1	-1.8%	1%	x	-14%
O=C(Cc1ccc(Cl)c(Cl)c1)Nc1ccccc1N1CCCC1	-0.4%	8%	x	-17%
O=C(CN1CCN(S(=O)(=O)c2cccc(Br)c2)CC1)N1CCCCC1	0.2%	x	x	4%
CCOC(=O)c1cc2c(c(CCO)n1)[C@H](CCO)N(S(=O)C(C)(C)C)C2 (stereo not given in full)	-2.8%	x	x	-2%
COc1cc(OC)cc(C(=O)N2CCN(S(=O)(=O)c3ccc(Cl)s3)CC2)c1	-3.2%	x	x	-8%
O=C(NC(Cc1ccccc1)c1nc2ccccc2[nH]1)c1cccc([N+](=O)[O-])c1 (stereo not given)	1.1%	10%	5	14%
Cc1ccc(N=Nc2c(=O)[nH]n3c(C)cc(C)nc23)cc1	2.9%	-4%	-7	-5%
COc1cccc(/C=N/NC(=O)C(=O)Nc2ccccc2OC(F)(F)C(F)F)c1O	14%	u	8	u
CC1CCN(C(C)C(=O)Nc2ccccc2-c2ccccc2)CC1 (stereo not given)	-0.3%	0%	-6	-22%
COc1ccc2cc(C(=O)OC(C)C)sc(=O)c2c1OC	2.7%	-41%	2	12%
COc1ccc(C2(C(=O)N3CCCC3)CCOCC2)cc1OC	-5.8%	-11%	-27	-10%
O=C(N/C(=C\c1ccc([N+](=O)[O-])cc1)C(=O)N1CCCCC1)c1ccccc1Br	1.9%	-5%	2	2%
COc1ccc(Cl)cc1-c1nc(SCC(N)=O)n[nH]1	-4.2%	-6%	-16	-5%
C=C1CCN([C@@H](Cc2ccccc2)C(=O)NCCC(C)C)S(=O)(=O)c2ccccc21	-0.2%	x	x	0%
CN(CC(=O)Nc1ccc([N+](=O)[O-])cc1Br)Cc1c(F)cccc1Cl	-1.0%	-12%	-3	-11%
CCOC(=O)CC(C(=O)OCC)P(=O)(c1ccccc1)c1ccccc1 (stereo not given)	-4.6%	2%	-5	-21%
Cc1ccsc1C(=O)OCC(=O)Nc1c(C)n(C)n(-c2ccccc2)c1=O	-1.8%	-10%	0	-9%
CC(C)C[C@@H](CNCC(=O)[C@H](Cc1ccccc1)NC(=O)c1[nH]cnc1C(=O)N[C@@H](C)CN)NC(=O)c1nc[nH]c1C(=O)N[C@@H](CC(=O)O)C(=O)O	-0.8%	x	x	13%
O=C(c1c(Cl)cccc1Cl)N1CCN(c2cccc3[nH]ccc23)CC1	1.9%	-1%	u	-4%
CCCCN(C)C1CCN(C(=S)Nc2cccc(OC)c2)CC1	1.0%	1%	2[21.1 µM]	17%
COc1ccc(OC)c(NC2c3ccccc3C(=O)N2Cc2ccc3c(c2)OCO3)c1 (stereo not given)	2.3%	-8%	-1	1%

Looked up one by one from the list above:
SMILES	Rango complex inh	miR-21 FLuc	GLA inh pH 4.5	Rango release inh
O=C(CN1CCN(S(=O)(=O)c2cccc(Br)c2)CC1)N1CCCCC1	0.2%	x	x	4%
COc1ccc(Cl)cc1-c1nc(SCC(N)=O)n[nH]1	-4.2%	-6%	-16	-5%
COc1ccc(OC)c(NC2c3ccccc3C(=O)N2Cc2ccc3c(c2)OCO3)c1 (stereo not given)	2.3%	-8%	-1	1%
CCOC(=O)CC(C(=O)OCC)P(=O)(c1ccccc1)c1ccccc1 (stereo not given)	-4.6%	2%	-5	-21%
Cc1ccc(N=Nc2c(=O)[nH]n3c(C)cc(C)nc23)cc1	2.9%	-4%	-7	-5%
O=C(Cc1ccc(Cl)c(Cl)c1)Nc1ccccc1N1CCCC1	-0.4%	8%	x	-17%

Continued.
SMILES	Rango complex inh	miR-21 FLuc	GLA inh pH 4.5	Rango release inh
CC(NC(=O)c1cccc(Cl)c1)C1CC2CCC1C2 (stereo not given)	1.9%	4%	x	13%
Cc1ccc(Cl)cc1N1C(=O)CC(C)(C)CC1=O	0.3%	3%	x	-3%
Oc1nc(Nc2ccc(F)cc2)sc1/C=C1\C=Nc2ccccc21	u	-35%	-11	u
CC1(C)CC(=O)C(N=Nc2ccc3ncsc3c2)=C(O)C1	-2.3%	-35%	-3	-17%
COc1ccc(CCNC(=O)Cn2nnc(C(=O)Nc3cc(C)ccc3C)c2N)cc1OC	1.3%	10%	x	19%
CC1CN(c2ncc(/C=N/NC(=O)c3ccccc3O)s2)CC(C)O1 (stereo not given)	2.4%	-1%	-7	-10%
CC1CCCN(Cc2c(O)ccc3c(=O)c(-c4ccc(Cl)cc4)coc23)C1 (stereo not given)	-0.6%	-5%	x	5%
COc1ccccc1N1CCN(c2nc(C)cc(C)c2C#N)CC1	-0.3%	-7%	x	-18%
CC(=O)N(Cc1cc(=O)[nH]c2ccccc12)c1ccccc1	-4.0%	-3%	0	-1%
O=C(COc1ccccc1Cl)NC(=S)Nc1ccccc1N1CCCC1	-0.8%	-2%	x	-9%
CCCNc1nc(C)nc2c1cnn2CCc1ccccc1	u	-60%	1	-22%
O=C(Nc1ncccc1O)C1CCN(S(=O)(=O)c2ccc3ccccc3c2)CC1	0.2%	x	x	-1%
CCOc1ccc(NC(=O)CN(c2ccc(OC)cc2)S(C)(=O)=O)cc1	0.5%	-60%	-4	15%
COc1ccc(Cl)cc1NC(=O)c1cccc(N2C(=O)C3CC=CCC3C2=O)c1 (stereo not given)	0.0%	11%	x	4%
CCC(C)n1c(=N)c(C#N)cc2c(=O)n3cc(C)ccc3nc21 (stereo not given)	u	0%	-2	u
CCCc1nc2ccccc2c(=O)n1/N=C/c1ccc(O)cc1	4.3%	6%	-12	11%
O=C(Nc1ccccc1C(=O)O)c1cccc(C(=O)Nc2ccccc2C(=O)O)c1	6.1%	14%	x	16%
COc1ccccc1CC(=O)Nc1ccc(OC)c(OC)c1	-2.1%	-5%	0	2%
CCc1noc(C)c1C(=O)N1CCN(S(=O)(=O)c2ccc(C(C)C)cc2)CC1	2.0%	x	x	-14%
CCOC(=O)c1cc(C)n(-c2ccc(Cl)cc2)c1C	-1.3%	-26%	-4	5%
O=C1c2ccccc2C(=O)N1CCCCN(C(=O)c1cc2ccccc2oc1=O)c1ccc(F)cc1F	0.1%	-2%	1	3%
Cc1cc(=O)[nH]c(SCC(=O)Nc2ncc(S(=O)(=O)c3ccc([N+](=O)[O-])cc3)s2)n1	0.5%	8%	2	-3%
CC(=O)c1cccc(S(=O)(=O)NCCCN2CCOCC2)c1	-0.6%	x	x	2%
CCn1c2ccccc2c2cc(NC(=O)CNCC3CCCO3)ccc21 (stereo not given)	-5.2%	-11%	-4	-3%
O=C(CSc1nnnn1C1CCCC1)NCc1ccccc1	-0.6%	2%	4	1%

Not a retest: an excerpt of the list.
SMILES	Rango complex inh	miR-21 FLuc	GLA inh pH 4.5	Rango release inh
CC(NC(=O)c1cccc(Cl)c1)C1CC2CCC1C2 (stereo not given)	1.9%	4%	x	13%
Cc1ccc(Cl)cc1N1C(=O)CC(C)(C)CC1=O	0.3%	3%	x	-3%

Back to the main list, repeating the two entries before the break.
SMILES	Rango complex inh	miR-21 FLuc	GLA inh pH 4.5	Rango release inh
CCn1c2ccccc2c2cc(NC(=O)CNCC3CCCO3)ccc21 (stereo not given)	-5.2%	-11%	-4	-3%
O=C(CSc1nnnn1C1CCCC1)NCc1ccccc1	-0.6%	2%	4	1%
O=C(Cn1cnc2scc(-c3ccccc3)c2c1=O)N1CCOCC1	4.9%	-7%	16	0%
Cc1ccc(S(=O)(=O)N2CCN(C(=O)CN(Cc3ccco3)Cc3cccs3)CC2)cc1	-3.0%	x	x	0%
CCOc1ccccc1NC(=O)CSc1nc(=O)n(CCN2CCOCC2)c2c1CCCC2	-1.5%	x	x	-9%
O=Cc1cn(-c2ccccc2)nc1-c1cc2ccccc2oc1=O	5.0%	1%	5	14%
CN(C)CC1CC/C(=C\c2ccc(O)cc2)C1=O (stereo not given)	u	x	x	-29%
CN(c1ccc(C(=O)NCCSCc2ccccc2)cc1)S(=O)(=O)c1ccccc1	0.2%	-7%	-1	1%
COc1ccc(S(=O)(=O)N2CCCC(C(=O)Nc3ccc(NC(=O)c4ccccn4)cc3)C2)cc1 (stereo not given)	0.3%	-17%	-5	-9%
Cc1nn(-c2ccccc2)c2sc(C(=O)c3c(N)n(C)c(=O)n(C)c3=O)cc12	u	-14%	1	-17%
COc1ccc(/C=C/c2onc(C)c2S(=O)(=O)N2CCC(C(=O)N3CCCCCC3)CC2)cc1	1.8%	12%	x	-2%
COc1ccc(N2C(=O)NC(NS(=O)(=O)c3ccc(Cl)cc3)(C(F)(F)F)C2=O)cc1 (stereo not given)	2.0%	0%&0%	x	9%
COC(=O)C1C(=O)c2c([nH]c(C(=O)OC3CCCC3C)c2C)CC1C (stereo not given)	0.0%	-35%	0	-6%
CC(=O)C[C@H](O)CC(=O)[C@H]1OC(=O)CCCCCCCCc2ccccc21	5.4%	x	x	7%
Cc1ccc(C)c(-n2ccnc2SCC(=O)O)c1	0.7%	-4%	2	16%
Cc1ccc(C(=O)COc2ccccc2C(=O)Nc2ccccc2)cc1	-2.4%	0%	0	-14%
COc1ccc(C(=O)Nc2ccnn2C2CCN(C(=O)C3CCOC3)CC2)cc1 (stereo not given)	-0.1%	-23%	x	4%
C#CCOCCOCCOCCNc1nc(N2CCN(C(=O)[C@H]([C@@H](C)CC)n3cc(CCCCN)nn3)CC2)nc(N2CCN(C(=O)[C@H](C)n3cc(CCC(=O)O)nn3)CC2)n1	1.3%	-8%	8	1%
COc1ccccc1CCCNC(=O)C1CCC(=O)N(CCc2cccc(F)c2)C1 (stereo not given)	-0.2%	-1%	x	0%
Cc1cc(OCc2nc(-c3cccnc3)no2)c(C)cc1Br	-0.9%	-9%	-4	2%
CCCC[C@@H](CNC)NC[C@H](NCCCCC1CCCCC1)C(C)C	1.5%	u	x	2%
CCCCn1c(N)c(N(CCOC)C(=O)C2CCN(C(=O)c3ccc(F)cc3)CC2)c(=O)[nH]c1=O	-5.0%	x	x	-1%
CCc1c(C(C)=O)oc2ccc3c(C)cc(=O)oc3c12	-0.4%	-2%	5	-5%
COc1ccccc1C(=O)NC(=O)CSc1nncn1C(C)C	0.7%	x	x	9%
CCOc1ccc(NS(=O)(=O)c2ccc(C(=O)N3CCCC3)cc2)cc1	1.2%	x	x	12%
CC(C)(C)c1ccc(OCC(O)CN2CCOCC2)cc1 (stereo not given)	-3.5%	x	x	-18%
CCOC(CNC(=O)C(=O)Nc1cc2c3c(c1)CCC(=O)N3CCC2)OCC	3.9%	1%	x	13%
O=C(COc1ccc(Cl)cc1)NCc1nnc(SCC(=O)N2CCCCC2)o1	4.4%	-2%	-7	12%
CN1CCN(CCCNC(=O)c2cc3c(-c4ccc(Cl)cc4)nn(C)c3s2)CC1	-0.1%	24%	0	-29%
COc1ccc(N=N/C(C(C)=O)=C(/C)O)cc1	1.4%	-25%	-13	8%
CN(C(=O)C1CCCCN1S(=O)(=O)c1ccccc1)c1ccccc1 (stereo not given)	2.3%	x	x	3%
COc1ccccc1C(=O)COC(=O)CN1C(=O)C2CC=CCC2C1=O (stereo not given)	-2.8%	x	x	-7%

Arranged by length of the SMILES (rising): some entries from above
SMILES	Rango complex inh	miR-21 FLuc	GLA inh pH 4.5	Rango release inh
O=C(Cn1cnc2scc(-c3ccccc3)c2c1=O)N1CCOCC1	4.9%	-7%	16	0%
CCCC[C@@H](CNC)NC[C@H](NCCCCC1CCCCC1)C(C)C	1.5%	u	x	2%
O=C(COc1ccc(Cl)cc1)NCc1nnc(SCC(=O)N2CCCCC2)o1	4.4%	-2%	-7	12%
CCOC(CNC(=O)C(=O)Nc1cc2c3c(c1)CCC(=O)N3CCC2)OCC	3.9%	1%	x	13%
